Source: PubChem (several laboratories)
GALR2 agonist: GALR2 (human) receptor agonism. O43603. GALR2-expressing cells, agonist activation read-out. activation, %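 (tested at 5 µM)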. hit rate 0.48% among 140,000;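 active means above mean plus 3 SD of all compounds, about 5% in these data, not always enough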;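 further: 0% = vehicle buffer wells and 100% = reference agonist at full effect; tested in CHO reporter cells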
Target sequence (O43603 whole entry, looked up): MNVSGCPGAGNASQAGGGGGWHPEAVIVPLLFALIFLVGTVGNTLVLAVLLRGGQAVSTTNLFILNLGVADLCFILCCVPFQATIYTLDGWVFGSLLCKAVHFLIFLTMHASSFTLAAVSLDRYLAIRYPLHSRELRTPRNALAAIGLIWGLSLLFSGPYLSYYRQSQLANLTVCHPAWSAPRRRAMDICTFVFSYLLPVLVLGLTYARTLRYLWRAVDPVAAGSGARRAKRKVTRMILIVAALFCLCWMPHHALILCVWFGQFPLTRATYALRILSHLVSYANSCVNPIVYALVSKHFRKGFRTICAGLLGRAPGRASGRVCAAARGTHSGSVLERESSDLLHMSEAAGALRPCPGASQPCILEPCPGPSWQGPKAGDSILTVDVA
Insulin prom inh: TRM-6 insulin promoter activity inhibition; TRM-6 cells (human fetal islet line), insulin promoter-eGFP reporter, imaging; reporter expression induced with tamoxifen; hit rate 0.9% among 130,000; AID 1273; inhibition, % at 2 µM;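 active means inhibition above the mean plus 3 SD, with well images judged a real hit on visual review, cut at about 60% in these data, passing the limit was not always enough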
PKD1 kinase inh: inhibitors of human PKD1 kinase | hit rate 0.056% among 200,000 | Q15139 | inhibition, %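 (about 10 µM by stock and volumes)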 | PKD1 kinase fluorescence polarization assay;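 active means inhibition of 50% or more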;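 further: controls were vehicle for no effect and a reference inhibitor for full effect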
RGS16-Gao HTS: RGS16-Galphao interaction regulator (human); O15492+P09471; bead-based flow cytometry RGS16-Galphao binding, fluorescence; actives lie on both sides; binding response (% of control), % at 10 µM; hit rate 0.38% among 220,000;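 active means below 25% or above 175%, edge rows of some plates excepted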;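 further: Galphao activated by GDP with aluminum fluoride before binding; 100% = wells without compound and 0% = beads without RGS; some results beyond the cut were filed as inactive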
Target sequence (O15492 whole entry, looked up): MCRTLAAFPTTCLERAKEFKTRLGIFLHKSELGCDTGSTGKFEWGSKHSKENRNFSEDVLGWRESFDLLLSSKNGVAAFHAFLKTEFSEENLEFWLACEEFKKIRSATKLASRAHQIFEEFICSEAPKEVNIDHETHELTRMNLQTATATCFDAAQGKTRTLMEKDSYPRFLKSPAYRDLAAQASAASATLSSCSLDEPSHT
Target sequence (P09471 whole entry, looked up): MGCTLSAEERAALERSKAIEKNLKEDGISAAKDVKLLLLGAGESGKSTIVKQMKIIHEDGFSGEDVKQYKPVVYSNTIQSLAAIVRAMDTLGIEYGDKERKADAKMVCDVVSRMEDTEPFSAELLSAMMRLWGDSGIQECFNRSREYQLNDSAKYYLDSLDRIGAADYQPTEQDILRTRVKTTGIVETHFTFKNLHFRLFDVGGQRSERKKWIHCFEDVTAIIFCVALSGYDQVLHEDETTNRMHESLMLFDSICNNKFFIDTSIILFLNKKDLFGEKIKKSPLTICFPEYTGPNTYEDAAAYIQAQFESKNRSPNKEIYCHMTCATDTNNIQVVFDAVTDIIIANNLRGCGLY
HSV augment: increases HSV replication in cells; hit rate 0.005% among 220,000; HSV replication augmentation in cells, fold increase; AID 1956; maximum fold increase;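 active means peak rise of 1.5-fold or more in the series; tested in PC3 cells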;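 further: first round at 10 µM; read as green reporter fluorescence; hits show the peak of a series up to 25 µM; 1 = signal of infected wells without compound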
Insulin prom inh cell count: second read-out of Insulin prom inh, no call of its own (marks repeat the call); normalized cell count, %; measured here: cell count, toxicity; reference of the scale not given here;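 cells exposed to compound for 48 h; stained nuclei by imaging scaled within each plate; lower means fewer cells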
HSV augment primary fold: further read-out of HSV augment, marked with its call; fold increase; compound at 10 µM; measured here: primary screen fold increase 10 uM; tested in PC3 cells;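 GFP signal in the first replicate; 1 = infected wells without compound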
Active calls of the source: *; i = inactive; . = no result given.

No.	mol	GALR2 agonist	Insulin prom inh	Insulin prom inh cell count	PKD1 kinase inh
1	O=C(NC12CC3CC(CC(C3)C1)C2)c1ccccc1	.	.	.	1
2	O=C(COc1ccc(Br)cc1)N/N=C1\SCC(=O)N1c1ccc(F)cc1	-0.8	93*	109*	3
3	COc1ccccc1NS(=O)(=O)c1cccc(N2CC(O)=C(c3ccccc3)C2=N)c1	-0.8	57	129	-14
4	Cc1cccc(CCNC(=O)C2CCN(S(=O)(=O)c3cccc4nsnc34)CC2)c1	1.2	15	121	-1
5	Cc1c(C(=O)COC(C)(C)C)[nH]c2ccccc12	-1.0	.	.	-21
6	CCC(C)NCCOc1ccccc1C (configuration not stated)	.	.	.	1
7	Cc1nn(-c2ccccc2)c(N2CCCC2)c1/C=N/Nc1ccc(S(N)(=O)=O)cc1[N+](=O)[O-]	0.0	.	.	4
8	Cc1sc2ncnc(SCC(=O)NC(C)C(C)C)c2c1C (configuration not stated)	.	.	.	-7

No.	RGS16-Gao HTS	HSV augment	HSV augment primary fold
1	100	i	1
2	104	i	0.92
3	91	i	1
4	101	i	0.93
5	95	i	0.92
6	103	i	0.89
7	101	i	0.67
8	100	i	1.2

The listing continues:
No.	mol	GALR2 agonist	Insulin prom inh	Insulin prom inh cell count	PKD1 kinase inh
9	c1cc(-c2cccs2)nc(-c2cccs2)c1	-0.4	.	.	-4
10	COc1ccccc1CNC(=O)CCNC(=O)Cn1ccc2ccccc2c1=O	-0.1	34	121	-12
11	CC(C)C(=O)N1N=C(c2ccc(NS(C)(=O)=O)cc2)CC1c1cccs1 (configuration not stated)	0.2	12	114	-5
12	NCc1cccc(-n2cccn2)c1	-1.3	44	202	2
13	CCOc1ccc(NC(=O)Cn2nnc3c(cnn3-c3ccc(F)cc3)c2=O)cc1	.	-82	38	5
14	O=c1[nH]c2ccccc2c(O)c1O	.	0	129	-1
15	CC(=O)Nc1nnc(-c2ccco2)o1	.	.	.	1
16	CC(C)C(NS(=O)(=O)c1cccs1)C(=O)Nc1nc(C(C)(C)C)cs1 (configuration not stated)	0.0	-16	95	-14

No.	RGS16-Gao HTS	HSV augment	HSV augment primary fold
9	106	i	0.87
10	103	i	1.1
11	105	i	0.84
12	110	i	0.99
13	123	i	0.98
14	49	i	0.81
15	98	i	0.97
16	97	i	0.89

One compound at a time, as listed above. Order of screens: GALR2 agonist, Insulin prom inh, Insulin prom inh cell count, PKD1 kinase inh, RGS16-Gao HTS, HSV augment, HSV augment primary fold
`NCc1cccc(-n2cccn2)c1` in the list: -1.3, 44, 202, 2, 110, i, 0.99
`COc1ccccc1CNC(=O)CCNC(=O)Cn1ccc2ccccc2c1=O` in the list: -0.1, 34, 121, -12, 103, i, 1.1

(more compounds)
No.	mol	GALR2 agonist	Insulin prom inh	Insulin prom inh cell count	PKD1 kinase inh
17	CCN(CC)C(=O)CC(c1ccc(F)cc1)c1ccc(OC)cc1 (configuration not stated)	1.0	.	.	6
18	Cc1cccc(Nc2nc(N)nc(CSC(=S)N3CCOCC3)n2)c1	0.2	.	.	-2
19	COc1ccc2c(c1)c(C(=O)O)c(C)n2-c1ccccc1	.	.	.	.
20	COC(=O)CNC(=O)c1ccc(NS(=O)(=O)c2cc([N+](=O)[O-])ccc2Cl)cc1	.	.	.	.
21	COc1cc(/C=C/[N+](=O)[O-])ccc1OCc1cccc(C(=O)O)c1	.	-8	60	-6
22	Clc1ccc(CSc2ncn[nH]2)cc1	-0.5	.	.	-8
23	Cc1nn(C)c(C)c1Nc1ccc(N2C(=O)C3C4C=CC(C4)C3C2=O)cc1[N+](=O)[O-] (configuration not stated)	.	.	.	3
24	CC1CCN(S(=O)(=O)Cc2ccccc2Cl)CC1	-0.6	14	84	-2

No.	RGS16-Gao HTS	HSV augment	HSV augment primary fold
17	99	i	1.1
18	103	i	0.99
19	107	i	0.96
20	98	i	1
21	90	i	1
22	106	i	0.8
23	102	i	0.98
24	98	i	1.1

Following part.
No.	mol	GALR2 agonist	Insulin prom inh	Insulin prom inh cell count	PKD1 kinase inh
25	CCOC(=O)Cc1csc(NC(=O)Nc2cccc(Cl)c2)n1	-0.8	-7	163	-1
26	COc1ccc(S(=O)(=O)NN(C)C(=O)c2nn(-c3ccccc3)ccc2=O)cc1	.	.	.	-10
27	COC(=O)c1ccc(N=NNc2cccc(Br)c2)cc1	-1.1	37	107	-4
28	CCCCN(C)C(=O)C1CCC(=O)N(c2cc(OC)c(OC)c(OC)c2)C1c1ccc(OC)cc1 (configuration not stated)	0.0	-15	145	-3
29	CCOC(=O)N1CCN(S(=O)(=O)c2ccc(F)cc2)CC1	-0.7	-3	110	-9
30	Cc1cccc(OCC(=O)N/N=C\c2cn(C)c3ccccc23)c1	.	-21	80	-1
31	COc1cccc(OCC(=O)Nc2ccccc2NC(C)=O)c1	-0.5	44	100	6
32	O=C(Nc1cccc(-c2cn3ccccc3n2)c1)c1cc2ccccc2oc1=O	-4.0	30	77	-5

No.	RGS16-Gao HTS	HSV augment	HSV augment primary fold
25	98	i	1.1
26	91	i	0.89
27	110	i	0.97
28	102	i	0.92
29	98	i	1.1
30	99	i	0.84
31	102	.	.
32	94	i	0.96

Continued:
No.	mol	GALR2 agonist	Insulin prom inh	Insulin prom inh cell count	PKD1 kinase inh
33	C/C(=N\NC(=O)CN(c1ccccc1)S(=O)(=O)c1ccccc1[N+](=O)[O-])C(C)(C)C	-0.6	16	68	-14
34	COC(=O)CSc1ncc(C#N)c(N)n1	-0.6	-12	132	1
35	Oc1[nH]c2ccc(Br)cc2c1N=NC(=S)Nc1ccc(F)cc1	.	.	.	.
36	c1ccc(-c2ccccc2OCCN2CCOCC2)cc1	-1.6	46	74	-2
37	CC(=O)Oc1ccc(-c2cccc(C(=O)NCCO)c2)cc1	.	5	126	-1
38	COc1ccc(NC(=S)NNC(=O)CNc2ccc(Cl)cc2)cc1	.	.	.	3
39	CCn1nc(C(=O)Nc2nc3ccccc3[nH]2)c2ccccc2c1=O	-1.0	-108	83	2
40	CN(Cc1ccccc1)C(=O)COC(=O)c1ccc2ccccc2n1	.	.	.	-4

No.	RGS16-Gao HTS	HSV augment	HSV augment primary fold
33	78	i	0.81
34	100	i	0.92
35	102	i	0.89
36	116	.	.
37	105	i	0.99
38	100	i	0.88
39	101	i	0.87
40	101	i	1.1

Further entries follow:
No.	mol	GALR2 agonist	Insulin prom inh	Insulin prom inh cell count	PKD1 kinase inh
41	O=C(c1ccco1)n1nc(-c2ccco2)nc1SCc1ccccc1	-2.3	17	140	2
42	O=C(O)c1cc(C(=O)O)c(-c2ccccc2)c(C(=O)O)c1	0.4	.	.	-7
43	CCc1nc(N2CCC(C)CC2)c2oc3ccccc3c2n1	0.3	35	53	8
44	CC(CP(=O)(O)O)NC(=O)Cc1ccccc1 (configuration not stated)	-1.4	3	124	-2
45	CCC(c1nnnn1C(C)C)N1CCN(C2CCCC2)CC1 (configuration not stated)	-0.4	.	.	-15
46	CCOc1ccc(C2C(C(=O)Nc3cc(C)on3)c3ccccc3C(=O)N2CCN2CCOCC2)cc1 (configuration not stated)	.	-20	67	-5
47	COc1ccc(C(=O)N2CCCc3ccccc32)cc1	-1.5	-11	91	-17
48	O=C1NN(c2ccccc2)C(=O)/C1=C/c1ccc(Sc2cccc3ccccc23)o1	-2.0	7	69	-2

No.	RGS16-Gao HTS	HSV augment	HSV augment primary fold
41	112	i	1.1
42	101	i	1.1
43	100	i	1.2
44	104	i	0.95
45	101	i	0.87
46	167	i	0.92
47	96	i	0.94
48	105	i	0.83

An excerpt from above in order of heavy-atom count, high to low:
No.	mol	GALR2 agonist	Insulin prom inh	Insulin prom inh cell count	PKD1 kinase inh
33	C/C(=N\NC(=O)CN(c1ccccc1)S(=O)(=O)c1ccccc1[N+](=O)[O-])C(C)(C)C	-0.6	16	68	-14
31	COc1cccc(OCC(=O)Nc2ccccc2NC(C)=O)c1	-0.5	44	100	6
47	COc1ccc(C(=O)N2CCCc3ccccc32)cc1	-1.5	-11	91	-17

No.	RGS16-Gao HTS	HSV augment	HSV augment primary fold
33	78	i	0.81
31	102	.	.
47	96	i	0.94

Further structures follow:
No.	mol	GALR2 agonist	Insulin prom inh	Insulin prom inh cell count	PKD1 kinase inh
49	O=C1NCCn2ccc(=O)cc21	.	.	.	.
50	Cc1ccc(/C=N/NC(=O)c2cc(C)oc2C)cc1	.	.	.	.
51	Cc1cc(C)c(C(N)=O)c(NC(=O)Nc2ccccc2)n1	-1.6	.	.	5
52	COc1ccc(/C=N/Nc2nc(Nc3ccccc3)nc(N3CCCCC3)n2)c(OC)c1	-0.3	23	113	-11
53	COc1ccc(CC/C(C)=N\NC(N)=O)cc1	-0.5	25	96	-3
54	COc1ccc(F)cc1S(=O)(=O)n1cc(C)nc1-c1ccccc1	-1.1	53	102	-2
55	COc1ccc(C(=O)OCC(=O)NCCN2C(=O)CSC2=O)cc1	.	27	114	1
56	Cc1ccc(OCCCN(C)C)c(Br)c1	-1.5	35	99	0

No.	RGS16-Gao HTS	HSV augment	HSV augment primary fold
49	100	i	1.1
50	90	i	0.73
51	115	i	1
52	107	i	0.98
53	110	i	1.1
54	.	i	1
55	104	i	0.86
56	101	i	0.98

Additional records follow:
No.	mol	GALR2 agonist	Insulin prom inh	Insulin prom inh cell count	PKD1 kinase inh
57	NC(=O)CSc1nnc(-c2ccoc2)o1	-1.2	.	.	3
58	CCOc1cnc(-c2ccc(OC)cc2)o1	-1.8	31	104	1
59	S=c1sc2c(N3CCN(Cc4ccccc4)CC3)ncnc2n1-c1ccccc1	1.1	0	112	-5
60	COc1ccc2[nH]cc(/C=C/C(=O)c3ccccc3)c2c1	.	.	.	.
61	COc1cc(C)c(Cl)cc1S(=O)(=O)n1ccnc1	.	.	.	0
62	COC(=O)Cn1c(=NC(=O)CSCC(=O)Nc2cc(C)on2)sc2cc(C(=O)OC)ccc21	.	.	.	5
63	CCN(C1CCCCC1)S(=O)(=O)c1ccc(S(=O)(=O)N(CC(=O)Nc2ccccc2)C2CC2)cc1	-1.0	-150	36	-5
64	COCc1nnc(NS(=O)(=O)c2ccc([N+](=O)[O-])cc2)s1	-0.6	-26	109	2

No.	RGS16-Gao HTS	HSV augment	HSV augment primary fold
57	105	i	0.99
58	101	i	0.92
59	101	i	1
60	102	i	0.89
61	97	i	1
62	106	i	1.1
63	102	i	0.7
64	103	i	0.81

Going on with the list:
No.	mol	GALR2 agonist	Insulin prom inh	Insulin prom inh cell count	PKD1 kinase inh
65	N#Cc1ccc(-c2cccnc2)nc1SCc1ccc(Cl)c(Cl)c1	1.2	.	.	-1
66	CC(C)c1cc(Br)ccc1OCCCN1C(=O)NC(C)(C)C1=O	0.5	22	78	5
67	Cc1ccc(Cn2c3ccccc3c3cn[nH]c(=O)c32)cc1	-0.4	-143	72	9
68	COC(=O)C(C)Sc1nnc(SC(C)C(=O)OC)s1 (configuration not stated)	-1.6	-19	101	-10
69	COc1ccc(NC(=O)c2c3c(nc4ccccc24)CCC3)cc1S(=O)(=O)N1CCOCC1	-2.6	23	127	7
70	CC(=O)c1ccc(OC(C)C)c(CSc2nc(O)cc(=O)[nH]2)c1	-2.6	13	92	-2
71	COc1ccc(S(=O)(=O)N2CCCC2C(=O)NCc2ccccc2Cl)cc1 (configuration not stated)	.	.	.	-6
72	O=C(CN1C(=O)CNC1=O)Nc1ccc(Cl)cc1	.	.	.	.

No.	RGS16-Gao HTS	HSV augment	HSV augment primary fold
65	114	i	1.1
66	102	i	0.61
67	99	i	0.77
68	99	i	0.91
69	81	i	1
70	97	i	1.1
71	103	i	1
72	95	i	0.94

Remaining list, next part:
No.	mol	GALR2 agonist	Insulin prom inh	Insulin prom inh cell count	PKD1 kinase inh
73	O=C(O)c1cc(S(=O)(=O)O)ccc1O	-1.2	.	.	-6
74	COC(=O)C(CCCN1C(=O)c2ccccc2C1=O)(NC(C)=O)c1nn[nH]n1 (configuration not stated)	.	.	.	-3
75	Cc1ccc(NC(=O)CCn2nc([N+](=O)[O-])cc2C)nc1	-1.4	0	58	7
76	Nc1cc(F)ccc1N1CCCCCC1	.	50	163	3
77	Cc1ccccc1-c1ccc(Nc2ccc(N3CCOCC3)cc2)nn1	-2.3	.	.	1
78	CCOC(=O)c1cc2sccc2n1CC(=O)N1c2ccccc2CC1C (configuration not stated)	-1.0	.	.	-10

No.	RGS16-Gao HTS	HSV augment	HSV augment primary fold
73	104	i	1
74	101	i	0.96
75	111	i	1
76	111	i	0.88
77	89	i	1.1
78	103	i	0.82
